MgrA DNA FP = S. aureus MgrA activity modulators, primary screen, biochemical, S. aureus Newman, fluorescence polarization | actives 0.13% (n = 84,000) | inhibition, %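 (about 10 µg/mL by stock and volumes)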 | MgrA-DNA binding | AID 602314, 2012;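 active means above 50% in either of two replicates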;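 further: 0% = protein plus DNA without compound and 100% = DNA alone without protein; higher means less MgrA bound to DNA so lower polarization; one replicate is shown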
Sa helicase inh = inhibitors of S. aureus replicative helicase, primary screen, biochemical, fluorescence unwinding readout; replicative DNA helicase (DnaC/DnaB), Staphylococcus aureus; purified S. aureus helicase, fluorescence unwinding assay; about half of the hits fall short of the stated cut; inhibition, %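 (tested at about 80 µM)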; actives 0.05% (n = 120,000); AID 485395, 2010;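 active means both duplicates at 50% or more, or one of them with a favoured structure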;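 further: 0% = mean of negative control wells and 100% = mean of positive control wells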
* = called active by the depositor; nt = no result given; & = joins results of further samples. Some of the compounds tested; count on the stated rates, not on these rows.

MgrA DNA FP	Sa helicase inh	molecule
-2.6	7	COc1cccc(C(=O)N2NC(=O)C=CC2=C(C#N)C#N)c1
nt	15	CC1Cc2ccccc2N1C(=O)CN(Cc1ccco1)S(=O)(=O)/C=C/c1ccccc1 (stereo not drawn)
-1.8	-16	C=C1C(C(=O)Nc2ccc(OC)cc2)C1C(=O)Nc1ccc(OC)cc1 (stereo not drawn)
-1.8	nt	Cc1ccc2cccc(OC(=O)c3cccnc3Oc3ccccc3)c2n1
nt	24	CCC(C)Sc1nc2c(cnn2-c2ccccc2)c(=O)[nH]1 (stereo not drawn)
-2.1	nt	CCO/C=C1\SC(=S)N(CCc2ccccc2)C1=O
nt	-10	Cc1ccc(NCC(=O)N2CCN(c3ncccn3)CC2)cc1
-0.2	nt	COc1ccccc1CC(=O)NC1CCN(Cc2ccccc2)CC1
0.1	nt	N#Cc1ccc(OCc2ccc(C(F)(F)F)cc2)c(Cl)c1
nt	-21	COCCOC(=O)c1c(C)oc2cc(Br)c(OC(=O)c3ccc(OC)c(OC)c3)cc12
-6.2	16	Cc1cccc(NC(=O)C(F)(F)C(F)(F)C(F)(F)F)n1
2.5	0	CCn1c(=O)cc(N2CCN(c3ccccc3)CC2)[nH]c1=O
-0.3	nt	Cc1cccc(C(N)CC(=O)O)c1 (stereo not drawn)
nt	16	O=C(NCCCN1CCCC1=O)c1ccc2c(c1)NC(=O)c1ccccc1S2
nt	15	CCOC(=O)COc1ccc2ccc(=O)oc2c1
nt	-14	Cc1ccc(/C=C2\C(=O)N(c3ccccc3)c3ccccc32)o1
nt	3	COC(=O)c1cc(-c2ccccc2)n(C)c1C
nt	-18	CCOC(=O)c1cc(C#N)c(N2CCNCC2)nc1C(F)(F)F
nt	11	Cc1ccc2c(CSc3nnc(C4CC4)n3N)cc(=O)oc2c1
1.2	-12	Cc1c(-c2cccc(Cl)c2)nc2ccccc2c1C(=O)N1CC(C)OC(C)C1 (stereo not drawn)
-1.0	12	NC(=O)CSCC(=O)Nc1ccccc1
nt	10	CCCC1c2ccsc2CCN1C(=S)NC (stereo not drawn)
-0.2	8	CC(C)CC(C(N)=O)C1=NC(C)(C)Cc2ccccc21 (stereo not drawn)
1.3	8	CCOC(=O)CN1C(=O)S/C(=C/c2cc(C)n(-c3cc(C)ccn3)c2C)C1=O
nt	-30	C=CCSc1ncc(C(=O)OCC)c(N)n1

Entries of single compounds, quoted from the list:
COc1cccc(C(=O)N2NC(=O)C=CC2=C(C#N)C#N)c1 as listed: MgrA DNA FP = -2.6; Sa helicase inh = 7
NC(=O)CSCC(=O)Nc1ccccc1 as listed: MgrA DNA FP = -1.0; Sa helicase inh = 12

Continued:
MgrA DNA FP	Sa helicase inh	molecule
0.1	nt	CCOC(=O)c1c(NC(=O)c2cc(OC)c(OC)c(OC)c2)sc(C(=O)Nc2ccccc2C(F)(F)F)c1C
1.9	4	CCOC(=O)N1CCN(C(=O)CN(c2ccc(Cl)c(C(F)(F)F)c2)S(C)(=O)=O)CC1
-1.3	1	O=C(Nc1ccccn1)c1cccc(N2C(=O)CCC2=O)c1
0.9	15	O=C(CSc1nnc(Cc2ccccc2)n1Cc1ccccc1)Nc1nccs1
-2.0	18	COC(=O)c1c(N)n(C)c2nc3ccccc3nc12
11	nt	Cc1cc(C)c2c(=O)n(C(=O)c3cccs3)sc2n1
-1.6	-3	Cc1ccc(OC(=O)c2ccccc2)c(C(C)(C)C)c1
-0.5	nt	CCN1CCC[C@H]1CNC(=O)c1c(OC)ccc(Br)c1OC
nt	4	CN(C)c1cccc2c1c(NC(=O)Nc1ccccc1)nn2C
-1.4	nt	O=C(c1ccc(Cl)cc1)N(CCS(=O)(=O)c1ccc(Cl)cc1)Cc1cccs1
nt	16	N#Cc1cccc(NC(=O)CCNC(=O)c2ccccc2)c1
12	1	Nc1ccc2nc(CO)[nH]c2c1
6.4	0	COc1ccccc1CCNC(=O)CSc1ccc(-c2ccco2)nn1
-1.9	nt	COC(=O)c1c(C)[nH]c(C)c1/C=C(\C#N)S(=O)(=O)c1ccc(Cl)cc1
0.8	6	CC1(C)Cc2c(c(N3CCOCC3)nc3sc(C#N)c(N)c23)CO1
nt	9	O=C(OCc1cc(=O)oc2cc(O)ccc12)C1CCN(S(=O)(=O)c2ccccc2)CC1
-3.1	8	CCC1SC(=S)N(CC(=O)O)C1=O (stereo not drawn)
2.7	nt	NC(=O)c1ncc(C(F)(F)F)cc1SCc1ccc(Cl)cc1
1.2	nt	Cc1ccc(S(=O)(=O)C2CS(=O)(=O)c3ccccc32)cc1 (stereo not drawn)
-1.6	3	CC(C)NC(=O)c1cn(C2CCCCC2)c(=O)c2c1c1ccccc1n2C
nt	-7	O=S(=O)(NC12CC3CC(CC(C3)C1)C2)c1ccc2c(c1)OCCO2
nt	3	CC1CCc2c(sc3ncnc(SCc4ccco4)c23)C1 (stereo not drawn)
-4.3	-12	CN(C)CC1CCCCC1OC(=O)c1cc2ccccc2o1 (stereo not drawn)
nt	-10	COC(=O)CSc1nc(-c2ccccc2)nc2c1CCCC2
nt	4	O=C(O)c1cc(S(=O)(=O)N(Cc2ccco2)S(=O)(=O)c2ccc3c(c2)OCCO3)c(Cl)cc1Cl

6 compounds from above, arranged by the value under Sa helicase inh, low to high.
MgrA DNA FP	Sa helicase inh	molecule
nt	-7	O=S(=O)(NC12CC3CC(CC(C3)C1)C2)c1ccc2c(c1)OCCO2
6.4	0	COc1ccccc1CCNC(=O)CSc1ccc(-c2ccco2)nn1
-1.6	3	CC(C)NC(=O)c1cn(C2CCCCC2)c(=O)c2c1c1ccccc1n2C
nt	4	CN(C)c1cccc2c1c(NC(=O)Nc1ccccc1)nn2C
-3.1	8	CCC1SC(=S)N(CC(=O)O)C1=O (stereo not drawn)
-2.0	18	COC(=O)c1c(N)n(C)c2nc3ccccc3nc12

New compounds follow.
MgrA DNA FP	Sa helicase inh	molecule
0.2	-6	CCOC(=O)c1cc(C)n(CC2CCC(C(=O)Nc3ccccc3)CC2)c1C (stereo not drawn)
-1.3	8	CC1(C)Cc2c(c(N3CCOCC3)nc3sc4c(Cl)nnnc4c23)CS1
nt	-25	CC(Oc1ccccc1)C(=O)NCCn1ccc2ccccc21 (stereo not drawn)
-0.5	nt	Cc1ccc(S(=O)(=O)CCc2nnc(NC(=O)c3ccc(Br)cc3)s2)cc1C
1.7	-10	O=C(COC(=O)CSc1n[nH]c(-c2ccccc2)n1)NC1CCCCC1
2.5	nt	Cc1onc(-c2c(F)cccc2Cl)c1C(=O)NCCNc1ccc(C(F)(F)F)cc1[N+](=O)[O-]
nt	3	CCCN(CCC)c1ncnc2nc[nH]c12
nt	15	CC12CCC(=O)N1C(C(=O)OCc1cc(=O)n3cc(Br)ccc3n1)CS2 (stereo not drawn)
nt	13	CCOC(=O)N1CCN(Cc2cc(Cl)c3cccnc3c2O)CC1
nt	4	O=C(NCC1CCCO1)c1ccc(N2CCSc3ncccc32)s1 (stereo not drawn)
nt	-32	Cc1cc(=O)n2ncnc2n1CC(=O)N/N=C/c1ccc(Cl)cc1
nt	6	CN1C(=O)N(C)C(O)C1O (stereo not drawn)
nt	11	COc1ccc(NC(=O)c2c[nH]n3c(=O)cc(C4CCN(C(=O)OC(C)(C)C)CC4)nc23)cc1Cl
nt	-19	Cc1cc(CNCc2ccc(CN(C)C)cc2)c(C)n1CC(C)C
-0.3	nt	O=C(c1nn2c(c1Cl)NC(c1cccs1)CC2C(F)(F)F)N1CCN(c2ccc(F)cc2)CC1 (stereo not drawn)
-3.0	nt	Nc1ccc(Cl)cc1-c1nc2ccccc2[nH]1
-0.4	-2	CCOC(=O)c1cc2sccc2n1CC(=O)N1CCCC1
0.7	1	O=C(N1CCCCC1)N1CCN(C(c2ccccc2)c2ccccc2)CC1
-1.0	nt	Cc1nn(C(=O)C(C)(C)C)c(C)c1Cc1c(F)cccc1Cl
1.1	10	COc1ccc(N2Cc3cccc(C(=O)NCCc4cccc(C)c4)c3C2=O)cc1
nt	4	O=C(O)c1cccc(S(=O)(=O)Nc2ccccc2)c1
0.8	10	CCOC(=O)c1cnc(SC)nc1N
nt	3	O=C(/C=C/c1cccs1)OCc1ccc2c(c1)OCO2
nt	-15	Cc1ccc(C#N)c(SC(C(=O)O)c2ccccc2)n1 (stereo not drawn)
-0.5	nt	O=C(On1c(-c2ccccc2)nc2ccccc2c1=O)c1cccc(C(F)(F)F)c1
nt	-20	O=C1CC(c2ccco2)CC2=C1C(c1ccco1)Nc1ccccc1N2 (stereo not drawn)
nt	-12	Cc1nnc2c3ccccc3c(N3CCCCC3)nn12
-1.4	4	COC(=O)C(NC(=O)c1cc(-c2ccccc2)nc2ccccc12)C(C)C (stereo not drawn)
nt	-13	CC(c1n[nH]c(=S)n1Cc1ccccc1)N(C)C (stereo not drawn)
4.4	nt	CCOC(=O)N1CCN(c2ccccc2OC)CC1
nt	-14	O=C(NCc1ccccc1)c1cc(=O)[nH]c(=O)[nH]1
nt	10	CC1(C)C(=O)Nc2ccccc2N1C(=O)COc1ccc2ccc(=O)oc2c1
nt	8	CC(C)(C)C(=O)Nc1nnc(-c2ccc(Br)cc2)s1
3.4	nt	CC1(C)O[C@@H]2C[C@H]3[C@@H]4C[C@H](F)C5=CC(=O)CC[C@]5(C)[C@H]4[C@@H](O)C[C@]3(C)[C@]2(C(=O)CO)O1
nt	-11	Cc1ccc2c(c1)/C(=N/OCC(=O)NCCc1ccccc1)C(=O)N2
2.5	21	CCOC(=O)c1cc2c(ccn2C)n1Cc1ccccc1C#N
0.9	2	COc1ccc(CC(=O)Nc2ccc(-c3n[nH]c(=S)s3)cc2)cc1
nt	-15	O=C(Nc1ccc(N2CCOCC2)c(Cl)c1)c1ccc(Br)o1
2.9	4	O=C(Nc1ccc(Oc2ccccc2)cc1)C1CC1
-0.8	-4	CCCNC(=O)c1ccccc1NC(=O)c1ccncc1
nt	4	COc1cccc(C(=O)NC(=O)c2oc3ccccc3c2C(N)=O)c1OC
1.5	nt	COC(=O)c1cccn1-c1ccc(F)cc1
42*	-42	CC(C)(C)C(=O)C1C2C3COC(O3)C(=O)C2C2C=Cc3ccccc3N21 (stereo not drawn)
nt	-12	Nc1c(C(=O)Nc2ccc3c(c2)OCCO3)nnn1Cc1ccc(Br)cc1F
nt	7	Nc1cc(=O)[nH]c(SCC(=O)Nc2cccc(C(F)(F)F)c2)n1
-1.0	-3	O=C(Cc1c[nH]c2ccccc12)NCc1ccccc1
0.2	nt	COc1cc(C=NCc2ccccc2)ccc1O
0.9	8	CCc1ccc(C(=O)Nc2ccc(Br)cn2)cc1
nt	-35	CCN1/C(=C2/SC(=S)N(C)C2=O)C=Cc2ccccc21
nt	17	CN(C)/C=C(\C#N)C(=O)NC1CCCCC1

(cont.)
MgrA DNA FP	Sa helicase inh	molecule
-0.5	8	O=C1/C(=C/C2CC=CCC2)SC(=S)N1CC1CCCO1 (stereo not drawn)
nt	7	C=CCN(CC=C)C(=O)CSc1nnc2c3ccccc3n(CC)c2n1
0.3	-10	COc1ccc(N(C)S(=O)(=O)c2ccc3c(c2)oc(=O)n3C)cc1
-2.5	1	COC(=O)C1CCN(S(=O)(=O)c2ccc(OC)cc2)CC1
nt	-4	CCCn1c(=O)n(C)c(=O)c2c(SCC(=O)O)nc(CC(C)C)nc21
0.8	5	O=C(Nc1ccc(S(=O)(=O)N2CCCCC2)cc1)C1CCCCC1
0.3	nt	O=C(NN1C(=O)/C(=C2/C(=O)N(Cc3ccccc3Cl)c3ccccc32)SC1=S)c1ccncc1
nt	3	CC(=O)Nc1nc(N)n(-c2ccccc2)n1
2.8	4	O=C(NCCC1=CCCCC1)C1CCN(C(=O)Cc2ccccc2)CC1
-1.8	nt	CC1(C23CC4CC(CC(C4)C2)C3)CC(=O)O1 (stereo not drawn)
nt	5	CCCc1cc(C(=O)Nc2cccc(Cl)c2)no1
nt	-9	CSc1nc(/N=C/N(C)C)n2nc(C)cc2n1
-0.8	-8	O=C(CSc1ccc2ccccc2c1)NCCCN1CCCC1=O
-1.1	nt	COc1ccc(OC)c(SCC(=O)N2CCc3c([nH]c4ccccc34)C2C(F)(F)F)c1 (stereo not drawn)
nt	7	O=c1cc(CN2CCc3ccccc32)occ1OCc1ccc(Cl)cc1
nt	-3	O=C(N/N=C1\CC(=O)c2ccccc21)c1ccc2c(c1)OCO2
1.2	nt	COc1ccc(S(=O)(=O)N2CC=C(c3ccccc3)CC2)c(OC)c1
1.2	-5	CC(C)C(=O)Nc1cccc(C(=O)Nc2ccccc2)c1
-1.6	-12	CCOC(=O)C1CCN(C(=O)CSc2ccc3ccccc3c2)CC1
-0.2&-1.1&0.1&0.9	nt	CCN(CC)CC(=O)Nc1c(C)cccc1C
nt	17	O=C1CCCN2N=C(SCC(=O)Nc3cccc4ccccc34)SC2=N1
-1.4	-4	COc1ccc(CN2C(=O)C3(OCCCO3)c3ccccc32)cc1
nt	-11	O=C(NC1CCCC1)c1noc2c1CCCCC2
-1.9	nt	COC(=O)Nc1nc2ccc(-c3n[nH]c(=O)c4ccccc34)cc2[nH]1
nt	-9	O=C(C1=NN(c2ccccc2)C(=O)CC1)N1CCN(Cc2ccc3c(c2)OCO3)CC1
nt	11	CCOC(=O)c1cc(C)n(CC(=O)O)c1C
nt	33	COc1ccc(-c2noc(CN(C3CCCCC3)S(=O)(=O)c3ccc(F)cc3)n2)cc1
nt	8	O=C(CCCn1c(=O)[nH]c2cc(Cl)ccc2c1=O)NCCN1CCN(c2ccccc2)CC1
nt	-4	NCCOc1ccccc1
-2.6	nt	O=C(CSc1ccccc1)NCc1ccc2c(c1)OCO2
nt	2	CCN(CC)S(=O)(=O)c1ccc2c(c1)nc(CCC(=O)OCC(N)=O)n2C

Two records drawn at random from the list so far:
MgrA DNA FP	Sa helicase inh	molecule
0.9	2	COc1ccc(CC(=O)Nc2ccc(-c3n[nH]c(=S)s3)cc2)cc1
-2.6	7	COc1cccc(C(=O)N2NC(=O)C=CC2=C(C#N)C#N)c1
